Beta2AR agonist: human beta-2 adrenergic receptor agonism by FAP; response, % (concentration not given with the values); Am2.2-beta2AR cells, FAP receptor internalization, flow cytometry; reference of the scale not given here; P07550; 340,000 compounds, 0.43% hits;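 active means response above a set limit, near 3 SD of response in nonfluorescent compounds, cut at about 42% in these data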;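 further: stock transfer was 100 nL into about 11 µL; a reference agonist was the positive control; negative values mostly stem from fluorescent compounds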
HNF4A DNA FP: change in binding of human HNF4 alpha to DNA; P41235; 360,000 compounds, 0.3% hits; HNF4a-FITC DNA binding, fluorescence polarization, 1 h; AID 1224865; activity change, % at 10 µM; in the data active means activity change above about 30%, passing the limit was not always enough;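 further: controls were the assay level and a saturating level of protein; the project sought stronger binding though the title names inhibitors; some compounds called inactive have numbers as strong as hits; positive values seem to mean higher polarization but the record does not say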
Bfl-1 A1 inh: inhibitors of the anti-apoptotic protein A1, read as caspase activation | 330,000 compounds, 0.066% hits | MEF A1-2A-BIM cells, Caspase-Glo 3/7 luminescence, 3 h; percent of clofoctol response, vehicle zero | AID 2462 | caspase activation, % (concentration not given with the values);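 active means over half of replicate activation scores above 10%, or exactly half above 10 with the replicate mean above 10; inconclusive means replicate mean below 10 yet half the replicates above 10; inactive means over half of replicates below 10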;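 further: wells of about 30 µL received 50 nL stock; many hits fall short of the cut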
Vif TR-FRET: HIV-1 Vif–A3G interaction blockers – biochemical, TR-FRET, GST-Vif 1-94, biotin-A3G peptide, dose response retest, primary screen (AID 1117319). one-dose inhibition, %; IC50 in µM for titrated hits. 260,000 compounds, 0.57% hits. TR-FRET GST-Vif / biotin-A3G peptide binding; higher % means a stronger effect; test concentration not given here; strong numbers were not always called active;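 active means above the screen mean plus three standard deviations and confirmed in dose response; inconclusive means results disagree or hit not tested in dose response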;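 further: Vif residues 1-94 fused to GST binding biotinylated APOBEC3G peptide 110-148; 0% = full assay without inhibitor and 100% = GST in place of GST-Vif; retest series ran down from 100 µM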
E coli growth: blocks Escherichia coli growth; 330,000 compounds, 0.21% hits; AID 1053175; OD600, 23 h; active compounds read low; OD600 absorbance (concentration not given with the values);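 active means OD600 absorbance below the run mean of sample wells minus 3.6 SD, in any replicate, cut at about 0.56 in these data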;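 further: stock transfer was 300 nL into about 60 µL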
LANA-H2A inh: blocks KSHV LANA binding to histone H2A/H2B. Q9QR71. cell-free LANA-H2A/H2B peptide, fluorescence polarization. inhibition, % (concentration not given with the values). 320,000 compounds, 0.6% hits. AID 2629; in the data active means inhibition mostly above about 10%, no sharp cut-off; inactive means mostly below about 6.7%;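 further: stock transfer was 7.5 nL into about 10 µL; 0% = median of vehicle wells and 100% = median of positive control wells; one replicate is shown; the record names a cut of 25% in any replicate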
Target sequence (Q9QR71 whole entry, looked up): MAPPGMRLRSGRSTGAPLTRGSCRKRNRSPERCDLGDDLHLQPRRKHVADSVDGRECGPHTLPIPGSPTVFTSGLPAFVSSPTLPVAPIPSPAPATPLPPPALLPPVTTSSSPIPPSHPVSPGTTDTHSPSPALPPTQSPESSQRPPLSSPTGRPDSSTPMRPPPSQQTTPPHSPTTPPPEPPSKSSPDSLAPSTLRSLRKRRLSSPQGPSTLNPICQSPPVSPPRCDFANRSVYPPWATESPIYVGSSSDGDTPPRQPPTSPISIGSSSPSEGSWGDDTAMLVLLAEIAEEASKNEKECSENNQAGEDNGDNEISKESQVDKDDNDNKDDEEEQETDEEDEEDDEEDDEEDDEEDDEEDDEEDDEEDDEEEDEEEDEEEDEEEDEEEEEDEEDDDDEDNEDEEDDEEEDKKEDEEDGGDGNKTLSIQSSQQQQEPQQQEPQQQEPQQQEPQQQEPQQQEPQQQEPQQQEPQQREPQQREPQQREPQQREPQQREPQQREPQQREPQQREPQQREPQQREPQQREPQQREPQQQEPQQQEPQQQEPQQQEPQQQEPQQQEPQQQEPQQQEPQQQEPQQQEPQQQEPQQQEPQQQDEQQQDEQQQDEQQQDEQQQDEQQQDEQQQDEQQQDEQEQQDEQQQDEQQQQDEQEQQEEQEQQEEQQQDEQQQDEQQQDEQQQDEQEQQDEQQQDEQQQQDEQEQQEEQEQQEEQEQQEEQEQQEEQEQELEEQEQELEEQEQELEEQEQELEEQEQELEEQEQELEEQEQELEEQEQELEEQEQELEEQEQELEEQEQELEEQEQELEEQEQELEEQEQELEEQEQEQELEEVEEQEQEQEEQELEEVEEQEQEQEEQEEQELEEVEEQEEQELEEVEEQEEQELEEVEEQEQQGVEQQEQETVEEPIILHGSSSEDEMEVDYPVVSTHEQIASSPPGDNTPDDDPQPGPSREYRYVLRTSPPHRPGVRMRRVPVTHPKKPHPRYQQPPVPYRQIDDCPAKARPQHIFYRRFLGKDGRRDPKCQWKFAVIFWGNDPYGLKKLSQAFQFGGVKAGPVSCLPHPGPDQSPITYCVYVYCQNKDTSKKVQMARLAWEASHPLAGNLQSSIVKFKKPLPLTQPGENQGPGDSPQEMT
UCH37 inh: human UCH37 deubiquitinating enzyme inhibition; Q9Y5K5; purified proteasome/UCH37, Ub-AMC cleavage fluorescence; inhibition, % (test concentration not listed); 330,000 compounds, 0.33% hits;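 active means mean of two replicates above 20%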;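 further: 0% = compound-free wells with enzyme and 100% = wells lacking proteasome; stock transfer was 100 nL into about 20 µL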
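Schedule: 30 min plus 25 min, room temperature / Material: human UCH37 within purified proteasomes / Technique: AMC fluorescence intensity at 355/460 nm / Buffer or medium: pH 7.4 Tris-HCl (50 mM) with ovalbumin, ATP-MgCl2, DTT / Controls: wells without proteasome as full block, compound-free enzyme plus substrate as uninhibited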
* marks the source's active call; other numbers are inactive results; ? = inconclusive; / = no result given; & = joins results of further samples.

A first look:
1: c1csc(-c2ncc3ccccn23)c1
2: COc1ccc(CCC(=O)Nc2ccc(S(=O)(=O)Nc3ncccn3)cc2)cc1
entry no.	1	2
Beta2AR agonist	6	-5
HNF4A DNA FP	-1.9	2.5
Bfl-1 A1 inh	-2.6	0.5
Vif TR-FRET	11%	-5%
E coli growth	0.68	0.65
LANA-H2A inh	-3.1	-0.6
UCH37 inh	-47	-2.3

This part in full, from the first entry:
1: c1csc(-c2ncc3ccccn23)c1
2: COc1ccc(CCC(=O)Nc2ccc(S(=O)(=O)Nc3ncccn3)cc2)cc1
3: COCc1ccccc1Cn1cnc2c1c(=O)n(C)c(=O)n2C
4: CCCNc1nc(C)cc(-c2cc(-c3ccccc3)on2)n1
5: CCC(C(=O)N1CCOCC1)n1nc(C)n2c(cc3cc(C)ccc32)c1=O (stereo unspecified)
6: O=C1c2ccccc2C(=O)N1CCc1csc(-c2cccc(F)c2)n1
entry no.	1	2	3	4	5	6
Beta2AR agonist	6	-5	2	-3	-8	-13
HNF4A DNA FP	-1.9	2.5	0.7	0.1	-1.2	2.5
Bfl-1 A1 inh	-2.6	0.5	-0.1	0.5	1.3	0.3
Vif TR-FRET	11%	-5%	-1%	-2%	-10%	-7%
E coli growth	0.68	0.65	0.73	0.66	0.62	0.69
LANA-H2A inh	-3.1	-0.6	-3.1	1.0	-5.4	-1.4
UCH37 inh	-47	-2.3	-4.2	0.1	-21	1.1

A second format for some results above.
No.	molecule	Beta2AR agonist	HNF4A DNA FP	Bfl-1 A1 inh	Vif TR-FRET	E coli growth	LANA-H2A inh	UCH37 inh
2	COc1ccc(CCC(=O)Nc2ccc(S(=O)(=O)Nc3ncccn3)cc2)cc1	-5	2.5	0.5	-5%	0.65	-0.6	-2.3
3	COCc1ccccc1Cn1cnc2c1c(=O)n(C)c(=O)n2C	2	0.7	-0.1	-1%	0.73	-3.1	-4.2
4	CCCNc1nc(C)cc(-c2cc(-c3ccccc3)on2)n1	-3	0.1	0.5	-2%	0.66	1.0	0.1

Later entries.
7: CCN(CC(=O)NCc1cccs1)S(=O)(=O)c1cc(NC(C)=O)ccc1OC
8: Nc1c(-c2ccccc2)nnn1Cc1ccccc1
9: CCSc1nnc(C)n1-c1ccc(C(=O)O)cc1
10: Cc1cccc(C)c1NC(=O)CN(C)C(=O)COc1cccc2c1OC(C)(C)C2
11: COc1ccc(-c2csc(NC(=O)COC(=O)C3=COCCO3)n2)cc1
12: O=C(COc1ccc(Cl)cc1)N1CCN(c2ccc([N+](=O)[O-])c(N3CCOCC3)c2)CC1
entry no.	7	8	9	10	11	12
Beta2AR agonist	0	-5	-6	-9	-6	6
HNF4A DNA FP	-3.4	-1.2	1.9	-3.0	-4.1	-0.1
Bfl-1 A1 inh	-0.5	-0.8	-2.5	-0.3	-6.1	0.2
Vif TR-FRET	6%	/	6%	4%	32%	/
E coli growth	0.61	0.68	0.79	0.68	0.72	0.69
LANA-H2A inh	2.5	-2.4	6.5	-10	1.7	2.3
UCH37 inh	0.0	5.0	5.1	2.4	2.1	10

13: O=C(O)c1cccc(-n2cnnn2)c1
14: O=C1C(Cl)=C(N2CCN(c3ccccc3[N+](=O)[O-])CC2)C(=O)c2ccccc21
15: Cc1cc(C)n(C(=O)Cn2nc(C(F)F)cc2C)n1
16: COCCCn1c(SCC(=O)Nc2ccc3c(c2)OCCO3)nnc1-c1ccoc1C
17: Cn1c(=O)oc2cc(S(=O)(=O)CCC(=O)Nc3ccccc3)ccc21
18: OC1CCCN(C(=S)NCc2ccccc2)C1 (stereo unspecified)
entry no.	13	14	15	16	17	18
Beta2AR agonist	1	81*	-4	-10	-4	-9
HNF4A DNA FP	1.3	1.1	-1.9	-1.3	-3.5	2.5
Bfl-1 A1 inh	0.6	-0.8	1.1	1.8	-0.3	-0.8
Vif TR-FRET	21%	?	1%	-3%	/	10%
E coli growth	0.72	0.7	0.7	0.69	0.66	0.6
LANA-H2A inh	-1.9	-5.6	1.7	-2.6	-1.7	-0.7
UCH37 inh	2.5	10	-1.5	3.4	3.3	2.6

19: CCCOc1cccc(C(=O)NCCNC(=O)c2ccc(C)nc2)c1
20: CC(=O)NC(CC(C)C)C(=O)NC(CO)C(=O)NC(CCC(=O)O)C(=O)NC(C)C(=O)NC(CC(C)C)C(N)=O (stereo unspecified)
21: CCN(CC(=O)NCc1ccc(Cl)cc1)C(=O)/C=C/c1cc(OC)c(OC)c(OC)c1
22: COCCCNc1nc2nonc2nc1N1CCN(C2CCCC2)CC1
23: CCCCOC(=O)C1CCC[C@@H](C)N1 (stereo partly specified)
24: CCC1(CC)NC(=O)N(CC(=O)NC(=O)NCc2ccccc2)C1=O
entry no.	19	20	21	22	23	24
Beta2AR agonist	5	-5	3	-4	-1	12
HNF4A DNA FP	3.8	6.5	2.7	-0.5	1.2	0.2
Bfl-1 A1 inh	0.3	0.6	0.6	1.6	0.4	-1.0
Vif TR-FRET	/	/	3%	/	-1%	/
E coli growth	0.69	/	0.63	0.68	0.76	0.65
LANA-H2A inh	9.2	5.2	0.1	-0.5	7.5	-1.7
UCH37 inh	5.3	/	-37	6.7	3.9	1.9

25: CCc1cc(=O)[nH]c(SCc2cccnc2)n1
26: O=C(Nc1ccn(Cc2cccc3ccccc23)n1)c1cccnc1
27: Nc1nnc(SCc2nnc(-c3ccccc3)o2)s1
28: O=C(CN1CCN(S(=O)(=O)c2ccc(Br)s2)CC1)N1CCCCC1
29: COc1cc2[nH]c(=O)n3nc(-c4ccccc4)nc3c2cc1OC
30: O=C(OCC(=O)c1ccc[nH]1)C1=COCCO1
entry no.	25	26	27	28	29	30
Beta2AR agonist	-4	6	-6	1	16	1
HNF4A DNA FP	0.8	3.7	-1.2	3.3	5.9	-1.2
Bfl-1 A1 inh	0.8	0.4	0.1	1.7	0.4	-0.9
Vif TR-FRET	-3%	0%	/	/	-1%	18%
E coli growth	0.65	0.69	0.66	0.7	0.67	0.66
LANA-H2A inh	6.8	1.0	0.2	0.9	-3.0	-2.5
UCH37 inh	5.2	4.6	-0.5	2.1	-53	-0.1

31: O=C1CSC(c2ccc([N+](=O)[O-])cc2)N1c1ccccc1F (stereo unspecified)
32: O=C1CC(NCc2ccncc2)C(=O)N1c1ccc(Cl)cc1 (stereo unspecified)
33: O=C(c1cc(-c2ccccc2O)on1)N1CCCCCC1
34: COc1ccc(-c2cccc(NS(=O)(=O)c3ccc([N+](=O)[O-])cc3)c2)nn1
35: Cc1cccc(NC(=S)NCc2cccs2)c1C
36: Cc1ccc(CNS(=O)(=O)c2ccc3c(c2)n(C)c(=O)n3C)cc1
entry no.	31	32	33	34	35	36
Beta2AR agonist	5	-9	2	-1	9	-2
HNF4A DNA FP	1.2	2.9	0.5	1.1	-0.6	2.2
Bfl-1 A1 inh	0.7	0.1	-0.8	0.9	0.1	0.0
Vif TR-FRET	-9%	-2%	/	/	-2%	-7%
E coli growth	0.65	0.69	0.67	/	0.7	0.69
LANA-H2A inh	-2.4	-0.5	-2.1	-0.2	1.1	4.6
UCH37 inh	-0.5	-1.0	1.0	/	2.8	0.9

37: CCn1c(SCC(=O)Nc2cc(C)c(Cl)cc2OC)nnc1-c1ccco1
38: O=C(NC1CCCCCC1)C1c2ccccc2C(=O)N1C1CC1 (stereo unspecified)
39: CSc1ccccc1C(=O)NCCCOC(C)C
40: Cc1noc(C)c1C(=O)N1CCC(CO)(Cc2ccccc2)CC1
41: Fc1cccc(Cl)c1Cn1nnc(-c2ccc(N3CCOCC3)cc2)n1
42: Cc1c(NC(=O)c2n[nH]c(=O)c3ccccc23)c(=O)n(-c2ccccc2)n1C
entry no.	37	38	39	40	41	42
Beta2AR agonist	-5	0	-1	-9	-1	4
HNF4A DNA FP	1.2	-3.7	8.2	1.4	-2.4	3.0
Bfl-1 A1 inh	0.0	0.6	0.2	2.5	-0.7	-0.3
Vif TR-FRET	2%	27%	12%	-2%	-1%	-2%
E coli growth	0.7	0.69	0.74	0.69	0.73	0.68
LANA-H2A inh	-1.3	1.4	-4.4	0.2	-0.1	2.4
UCH37 inh	3.0	1.4	-0.6	4.0	2.6	4.7

Single values from the entries so far:
HNF4A DNA FP result of #39 is entered as 8.2
UCH37 inh result of #37 is entered as 3.0

(further entries)
43: O=C(CC12CC3CC(CC(C3)C1)C2)NC(Cc1ccccc1)C(=O)O (stereo unspecified)
44: O=C(Cc1ccc(Br)cc1)NC1CCSC1=O (stereo unspecified)
45: O=C(NC1CCSC1=O)c1cccc(C(=O)NC2CCSC2=O)c1 (stereo unspecified)
46: CCN1C(=O)[C@H]2[C@@H](c3ccc(-c4ccc(F)cc4)cc3)N[C@@](Cc3ccccc3)(C(=O)OC)[C@H]2C1=O
47: CC(=O)N/C(=C/c1ccc2c(c1)OCO2)C(=O)Nc1ccccc1
48: Cc1ccc2c(c1)N(C(C)C(=O)NCCc1ccccc1)C(=O)CO2 (stereo unspecified)
entry no.	43	44	45	46	47	48
Beta2AR agonist	-3	10	5	7	4	13
HNF4A DNA FP	-1.9	0.2	-1.1	4.4	0.4	-1.9
Bfl-1 A1 inh	0.3	0.7	1.8	0.0	0.2	0.5
Vif TR-FRET	6%	-2%	2%	/	-7%	-3%
E coli growth	0.74	0.68	0.71	/	0.7	0.66
LANA-H2A inh	-6.9	0.2	3.1	-0.4	0.7	9.3
UCH37 inh	0.7	1.7	-0.7	0.9	6.5	0.8

49: COc1ccc(NS(=O)(=O)c2ccc(Cl)c(C(=O)O)c2)cc1S(=O)(=O)N1CCCCC1
50: C1CCN(C2CCN(c3nc4nonc4nc3N3CCSCC3)CC2)C1
51: CC(=O)Nc1ccc(NC(=O)C(C)Sc2nnc(-c3cccs3)o2)cc1 (stereo unspecified)
52: CC(=O)N1CCCc2ccc(NS(=O)(=O)c3ccc(C)c(C)c3)cc21
53: O=C(N/N=C/c1ccncc1)c1cc2ccccc2cc1O
54: Cc1ccc2c(c1)[nH]c1c(=O)n(CCN3CCCCC3)cnc12
entry no.	49	50	51	52	53	54
Beta2AR agonist	2	2	3	13	8	-11
HNF4A DNA FP	3.9	2.2	-1.4	-1.3	-2.5	1.1
Bfl-1 A1 inh	0.6	0.8	0.7	-0.5	-5.8	0.1
Vif TR-FRET	15%	11%	?	/	/	?
E coli growth	0.67	0.7	0.68	0.67	/	0.8
LANA-H2A inh	-0.9	-4.0	-1.9	1.9	-7.4	-0.6
UCH37 inh	6.8	11	-1.1	0.1	/	-5.9

55: O=C(COC(=O)c1ccc(F)c(S(=O)(=O)N2CCOCC2)c1)Nc1ccc2c(c1)OCO2
56: CCOC(=O)Cc1csc(SCC(=O)Nc2cc(Cl)ccc2Oc2ccccc2)n1
57: COC(=O)c1ccc(NC(=O)CN(c2ccc(C)cc2)S(=O)(=O)c2c(C)nn(C)c2C)cc1
58: N=c1c(S(=O)(=O)c2ccc(Cl)cc2)cc2c(=O)n3ccccc3nc2n1CCc1ccccc1
59: Cc1cc(F)ccc1S(=O)(=O)N1CCCOC1CNC(=O)C(=O)NCc1ccccn1 (stereo unspecified)
60: Cc1ccc(C(=O)N(c2ccccc2)C2CC(C)N(C(=O)c3ccco3)c3ccccc32)cc1 (stereo unspecified)
61: CCOC(=O)NC(=O)C(=CNc1ccccc1C)C(=O)NC(=O)OCC
entry no.	55	56	57	58	59	60	61
Beta2AR agonist	1	0	-6	-2	2	3	0
HNF4A DNA FP	0.5	-1.5	-0.3	-49	-1.9	2.4	1.8
Bfl-1 A1 inh	/	-0.4	-0.3	0.4	-0.6	-1.2	1.0
Vif TR-FRET	-4%	0%&1%	?	/	2%	?	-3%
E coli growth	0.6	0.71	0.67	/	0.69	0.73	0.72
LANA-H2A inh	/	0.7	-5.7	3.1	-1.6	1.3	-2.8
UCH37 inh	1.9	2.9	2.4	/	6.3	4.3	2.2

Bioassay records from PubChem.
